KCNQ2 inh: KCNQ2 channel blockers in CHO-K1 cells – cell-based, FluxOR thallium flux, B-score, primary screen (AID 2156); 310,000 tested, 1.1% active; O88943; B-score at 10 µM; 20 min; active compounds read low; only compounds with negative scores are shown here; some inactives read as strong as hits;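 active = fluorescence ratio B-score at most minus 3 library SDs, with starting brightness B-score within 2 library SDs, cut at about -5.5 in these data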
Target sequence (O88943 whole entry, looked up): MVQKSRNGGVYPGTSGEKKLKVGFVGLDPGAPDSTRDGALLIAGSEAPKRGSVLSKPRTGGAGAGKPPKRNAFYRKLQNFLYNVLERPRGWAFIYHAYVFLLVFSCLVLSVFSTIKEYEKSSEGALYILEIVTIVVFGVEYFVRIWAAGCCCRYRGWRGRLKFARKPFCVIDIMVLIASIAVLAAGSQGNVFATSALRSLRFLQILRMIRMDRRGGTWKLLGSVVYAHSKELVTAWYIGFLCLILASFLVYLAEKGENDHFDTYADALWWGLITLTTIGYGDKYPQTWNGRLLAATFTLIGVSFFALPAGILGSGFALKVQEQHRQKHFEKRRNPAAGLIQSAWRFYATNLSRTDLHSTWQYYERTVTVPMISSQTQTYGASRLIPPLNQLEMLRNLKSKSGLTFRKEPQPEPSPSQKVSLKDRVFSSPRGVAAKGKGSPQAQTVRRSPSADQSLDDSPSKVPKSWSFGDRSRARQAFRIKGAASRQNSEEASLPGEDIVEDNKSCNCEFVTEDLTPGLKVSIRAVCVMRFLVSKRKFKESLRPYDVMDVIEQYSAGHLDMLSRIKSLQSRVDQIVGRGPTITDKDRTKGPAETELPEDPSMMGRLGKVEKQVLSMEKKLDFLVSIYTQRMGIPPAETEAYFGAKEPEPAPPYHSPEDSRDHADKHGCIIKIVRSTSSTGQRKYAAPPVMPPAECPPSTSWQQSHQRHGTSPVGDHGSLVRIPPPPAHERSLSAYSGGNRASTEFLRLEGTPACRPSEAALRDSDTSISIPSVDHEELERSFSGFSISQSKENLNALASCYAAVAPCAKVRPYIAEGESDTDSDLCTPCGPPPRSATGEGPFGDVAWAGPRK
KCNQ2 inh baseline: further read-out of KCNQ2 inh, marked with its call; B-score; measured here: initial fluorescence intensity artifact check;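 brightness before thallium and not channel activity; 0 = typical well and far values either way flag optical interference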
An asterisk follows results filed as active; i = inactive. These rows are one share of the data; rates above refer to the full screens.

SMILES	KCNQ2 inh	KCNQ2 inh baseline
COc1cc(C)c(S(=O)(=O)N2CCCC2)cc1C	i	0.98
CCOC(=O)c1cn(-c2c(Cl)cccc2Cl)c2cc(Cl)c([N+](=O)[O-])cc2c1=O	i	-2.06
CC(C)CC1c2[nH]c3ccccc3c2CCN1C(=O)C1CCOCC1 (configuration not stated)	i	-0.02
CS(=O)(=O)N(CC(=O)N1CCC(C(N)=O)CC1)Cc1ccc(Cl)c(Cl)c1	i	0.57
CCOC(=O)c1cnc(SC)nc1Oc1cccc(NS(=O)(=O)c2ccccc2)c1	i	-0.15
COc1ccc(C2/C=C\CN(C(=O)C3CCCC3)CC(=O)N2Cc2ccc(F)cc2)cc1 (configuration not stated)	i	1.29
Cc1cccc(C(=O)NCCc2ccccc2)c1	i	0.24
COc1cccc2cc(C(=O)C3=C(O)C(=O)N(CCN(C)C)C3c3ccc(Cl)cc3)oc12 (configuration not stated)	i	-0.22
COc1ccc2c(/C=C/c3cc[n+](C)cc3)c[nH]c2c1	i	2.87
CCCC(=O)N1CCN(c2ccc(NC(=O)c3cc4ccccc4o3)cc2)CC1	i	-0.69
CSc1ccc(C(=S)N2CCN(CCO)CC2)cc1	i	-0.94
O=C(c1ccco1)N1CCN(Cc2cn[nH]c2-c2cccc3ccccc23)CC1	i	-0.32
CCOc1ccc(N2C(=O)/C(=C/c3ccc(C)o3)N(C)C2=S)cc1	i	2.37
CCOc1ccc(-n2ccc(=O)c(C(=O)Nc3ccc(S(=O)(=O)N4CCOCC4)cc3)n2)cc1	i	-1.18
O=C(N1CCOCC1)N1CCN(CC(O)COc2ccc3ccccc3c2)CC1 (configuration not stated)	i	0.95
Cc1nnc(SCC(=O)NNC(=O)c2ccc(Cl)cc2)n1CC1CCCO1 (configuration not stated)	i	0.17
COc1cccc(-n2c(Cn3nc(C(F)F)cc3C(F)F)n[nH]c2=S)c1	i	0.27
Cc1cccc(NC(=O)c2cnn(-c3ccccc3)c2C)c1C	i	-0.32
Cc1cc(/C=N/NC(=O)c2ccc(O)cc2)c(C)n1C1CC1	i	-0.99
Nc1ccc(Oc2ccccc2-c2ccccc2)cc1	i	-0.76
COc1cc(CN2CCC(CCC(=O)NC3CC3)CC2)cc(Cl)c1OC	i	-0.18
CN1C(=O)SC(Nc2ccc(F)cc2)C1=O (configuration not stated)	i	-2.28
O=C(Nc1ccccc1Oc1cccnc1)C1CCCN(C/C=C/c2ccc(F)cc2)C1 (configuration not stated)	i	0.21
Cc1cc(C(=O)CCl)c(C)n1-c1cccc(S(=O)(=O)N2CCOCC2)c1	i	-1.44
CCCCn1c(N)c(N(CCC(C)C)C(=O)CSc2nnc3ccccn23)c(=O)[nH]c1=O	i	0.02

Some of the entries above, set out differently:
| structure | KCNQ2 inh | KCNQ2 inh baseline |
| --- | --- | --- |
| COc1cccc(-n2c(Cn3nc(C(F)F)cc3C(F)F)n[nH]c2=S)c1 | i | 0.27 |
| Cc1cccc(NC(=O)c2cnn(-c3ccccc3)c2C)c1C | i | -0.32 |
| Cc1cc(/C=N/NC(=O)c2ccc(O)cc2)c(C)n1C1CC1 | i | -0.99 |

(cont.)
SMILES	KCNQ2 inh	KCNQ2 inh baseline
CC(C)[C@H](NC(=O)[C@@H]1Cc2ccccc2CN1C(=O)OC(C)(C)C)C(=O)NCc1ccco1	i	-0.46
CCOc1ccc(/C=C2\SC(=S)N(CCC(=O)Nc3cccc(C(=O)O)c3)C2=O)cc1	i	2.55
Cc1cccc(NC(=S)NCc2ccccc2)c1C	i	-0.03
COc1ccc(C(CNC(=O)c2ccc(C)c(S(=O)(=O)N3CCCCC3)c2)N(C)C)cc1OC (configuration not stated)	i	0.54
CCN(CCNC(=O)C1CCN(S(=O)(=O)CC)CC1)c1ccccc1	i	0.64
CC12C(=O)N(c3cccc4cccnc34)C(=O)C1C1C=CC2C1 (configuration not stated)	i	1.14
COc1ccccc1C(=O)NCCCNC(=O)c1cccnc1	i	0.13
c1ccc(-c2csc3ncnc(N4CCOCC4)c23)cc1	i	-0.61
CCCCCCNC(=O)C(C#N)c1nc2ccccc2nc1N1CCOCC1 (configuration not stated)	i	13.3
O=C(O)CCC(=O)N1CCc2cc(S(=O)(=O)Nc3ccc4c(c3)OCCO4)ccc21	i	-0.06
CC(C)CCn1c(Oc2ccccc2Cl)nc2c1c(=O)n(C)c(=O)n2C	i	-0.37
CN(c1ccc(C(=O)NCCSC(C)(C)C)cc1)S(=O)(=O)c1ccccc1	i	1.33
Nn1c(SCC(=O)NC(=O)NCc2ccccc2)nnc1C1CC1	i	-0.49
O=C(Nc1ccc2c(c1)N(S(=O)(=O)c1cccs1)CCC2)c1c(F)cccc1Cl	-6.39*	-0.88*
Cc1cccc(NC(=O)C2CCCN(S(=O)(=O)c3c(C)nn(C)c3C)C2)n1 (configuration not stated)	i	0.05
Cc1ccc2c(c1)c(N=NC(N)=O)c(O)n2C	i	3.32
O=C(NCc1ccco1)c1sc2cccc(F)c2c1Cl	i	0.08
CC1(C)NC(=O)N(CC(O)Cn2nnc3ccccc32)C1=O (configuration not stated)	i	2.43
Cc1cccn2cc(-c3ccc(S(=O)(=O)N4CCOCC4)cc3)nc12	i	1.3
CCOc1ccc(S(=O)(=O)Nc2cccc(N(C)S(C)(=O)=O)c2)cc1	i	1.89
Cc1ccc(C(c2cc(Br)ccc2O)N2CCSCC2)cc1 (configuration not stated)	-5.83*	0.61*
COCCOC(=O)C1=C(C)N=C2SCCC(=O)N2C1c1ccc(C(=O)OC)cc1 (configuration not stated)	i	-1.02
C/C=C1\COC(C(=O)NCc2cccc(OC)c2OC)(C(F)(F)F)C=C1C=C1CCCCC1 (configuration not stated)	i	-1.49
Cn1c(CN2CCOCC2)nc2cc(NC(=O)COc3ccc([N+](=O)[O-])cc3)ccc21	i	-3.57
CN1C2C=C3C(C#N)=C(N)C(C#N)(C#N)[C@@H](c4cccs4)C3C1CC2 (some centres not stated)	i	-0.19
Remaining list, next part:
SMILES	KCNQ2 inh	KCNQ2 inh baseline
O=C1c2ccccc2C(=O)c2c1cccc2N1CCN(C/C=C/c2ccccc2)CC1	i	1.66
CCn1ccnc1CN1CCCC(C(=O)c2ccc3cc(OC)ccc3c2)C1 (configuration not stated)	i	1.36
O=C(CSc1nnc(C2CCCCC2)o1)N1CCCCC1	i	0.7
COc1ccc(CN(C)CC(=O)Nc2cc3oc4ccccc4c3cc2OC)c(OC)c1	i	1.24
CCCC(=O)N1CCN(c2ccc(NC(=O)c3cc4ccccc4o3)cc2Cl)CC1	i	1.22
Fc1ccccc1-c1nc(-c2cnccc2C(F)(F)F)no1	i	1.6
CCOC(=O)c1c(NC(=O)C(F)(OC)C(F)(F)F)sc(C(=O)N2CCCCC2)c1C (configuration not stated)	i	-1.86
COc1ccc(C2C(=O)N(C3CCCCC3)CC(=O)N2Cc2ccc3c(c2)OCO3)cc1 (configuration not stated)	i	0.81
CC(C)CCn1cnc2c(cnn2-c2ccc(Cl)cc2)c1=O	i	-1.65
O=C(CN1CCN(c2ccc(O)cc2)CC1)Nc1cc(S(=O)(=O)N2CCCC2)ccc1Cl	i	1.44
CCCCn1nnnc1SCC(=O)Nc1cccc(C)c1	i	0.15
Cc1ccsc1/C=N/NC(=O)c1cccc(S(=O)(=O)Nc2ccccc2Cl)c1	i	-0.89
COc1ccc(-n2c(N)c(Br)c(=O)[nH]c2=O)cc1	i	0.13
Cn1c(CCNC(=O)c2ccc(Cl)cc2)n[nH]c1=S	i	-0.15
O=C(N=C1SC2CS(=O)(=O)CC2N1CCc1ccc(F)cc1)C1CCCCC1 (configuration not stated)	i	2.53
CS(=O)(=O)c1ccc(S(=O)CC(=O)OCc2ccccc2)c([N+](=O)[O-])c1 (configuration not stated)	i	-1.89
Cn1c(=N)n(CC(=O)c2ccc(Br)cc2)c2ccccc21	i	3.24
CCOC(=O)c1c(O)c2ccccc2oc1=O	i	-0.06
O=C(NC1CCCC1)C(c1ccccc1F)N(C(=O)c1csnn1)C1CC1 (configuration not stated)	i	-0.94
CCCCNC(=O)[C@H]1C[C@H]1[C@@H](O)[C@H](CO)NC(=O)[C@H](Cc1ccccc1)NC(=O)OC(C)(C)C	i	-3.68
CCC(=O)N1CCc2nc(-c3ccccc3)sc2C1	i	-0.49
O=C(CCNS(=O)(=O)c1c(Cl)cccc1Cl)OCC(=O)c1ccccc1	i	1.29
Cc1onc(-c2ccccc2Cl)c1C(=O)Nc1ccc(Cl)cn1	i	-0.89
Cc1[nH]n(-c2cccc([N+](=O)[O-])c2)c(=O)c1-c1ccccc1	i	0.79
COc1ccc(S(=O)(=O)CCC(=O)N2c3ccccc3CC2C)cc1 (configuration not stated)	i	4.2

In the list so far, 9 have two or more sulfur atoms:
SMILES	KCNQ2 inh	KCNQ2 inh baseline
CCOC(=O)c1cnc(SC)nc1Oc1cccc(NS(=O)(=O)c2ccccc2)c1	i	-0.15
CSc1ccc(C(=S)N2CCN(CCO)CC2)cc1	i	-0.94
CCOc1ccc(/C=C2\SC(=S)N(CCC(=O)Nc3cccc(C(=O)O)c3)C2=O)cc1	i	2.55
CN(c1ccc(C(=O)NCCSC(C)(C)C)cc1)S(=O)(=O)c1ccccc1	i	1.33
O=C(Nc1ccc2c(c1)N(S(=O)(=O)c1cccs1)CCC2)c1c(F)cccc1Cl	-6.39*	-0.88*
CCOc1ccc(S(=O)(=O)Nc2cccc(N(C)S(C)(=O)=O)c2)cc1	i	1.89
Cc1ccsc1/C=N/NC(=O)c1cccc(S(=O)(=O)Nc2ccccc2Cl)c1	i	-0.89
O=C(N=C1SC2CS(=O)(=O)CC2N1CCc1ccc(F)cc1)C1CCCCC1 (configuration not stated)	i	2.53
CS(=O)(=O)c1ccc(S(=O)CC(=O)OCc2ccccc2)c([N+](=O)[O-])c1 (configuration not stated)	i	-1.89

(listing goes on)
SMILES	KCNQ2 inh	KCNQ2 inh baseline
COc1ccc(OC)c(S(=O)(=O)N2CCC(C(=O)N3CCN(Cc4ccccc4)CC3)CC2)c1	i	-1.25
Cc1cc(C)nc(NC(=O)c2cc(Br)ccc2Cl)n1	i	-2.49
CC(=O)n1cc([C@H]2C=C(C(=O)N3CCN(Cc4ccc5c(c4)OCO5)CC3)O[C@@H](OCc3ccc(CO)cc3)C2)c2ccccc21	i	0.55
Cc1cccc(-n2c(SCC(N)=O)nnc2-c2ccccn2)c1C	i	-1.06
COc1ccccc1C1CN(c2ccccc2)N=C1c1cccs1 (configuration not stated)	i	0.16
COc1ccc(OC)c(NC(=O)CN(Cc2ccc(Cl)cc2)S(C)(=O)=O)c1	i	0.24
Cc1cnc(NC(=O)CSc2nnc(-c3ccncc3)n2C2CCCCC2)s1	i	-0.17
CCOC(=O)c1c2n(c3ccc(O)cc13)CCCCC2	i	0.01
Cc1csc(Nc2ccc(C(=O)O)cc2)n1	i	1.63
CC(=O)N1C(=O)C2(C(C#N)=C(N)Oc3c2c(C)nn3-c2ccccc2)c2ccccc21 (configuration not stated)	i	0.03
CCOc1ccc(C(=O)Nc2ccc(N3CCN(C)CC3)cc2)cc1	i	-1.12
COc1ccccc1NC(=O)NCCCCc1ccccc1	i	-0.47
O=C(c1nc2ccc(Cl)cn2c1CNCCn1ccnc1)N1CCCCCCC1	i	-0.09
CC(C)C1CCC(C(=O)N[C@H](Cc2ccccc2)C(=O)O)CC1 (some centres not stated)	i	-0.4
CCc1nnc(NC(=O)c2cccc(S(=O)(=O)N3CCN(c4ccccc4)CC3)c2)s1	i	-0.35
Cc1nnc(SCC(=O)Nc2nonc2C)s1	i	-0.4
Cc1ccc(-c2cn(S(=O)(=O)c3ccc(C)cc3)nc2N)cc1	i	1.36
CCNCC(=O)N1c2ccccc2CCc2ccc(NC(=O)OC(C)C)cc21	i	1.99
COC(=O)CN(C)C(=O)CC1C(=O)NCCN1CC(C)(C)C (configuration not stated)	i	1.56
O=C(CSc1nnc(CNC(=O)c2cccs2)o1)NCC1CCCO1 (configuration not stated)	i	1.83
Nc1c(C(=O)Nc2ccc3c(c2)OCCO3)nnn1Cc1cccc(Br)c1	i	-0.69
CCOc1ccc(-n2c(=S)sc3c(=O)[nH]c(SCC(=O)N4CCC(C)CC4)nc32)cc1	i	-2.02
CCN(CC)c1ccc(NC(=O)c2ccc(=O)[nH]c2)cc1S(=O)(=O)Nc1ccc(OC)cc1	i	-0.67
N=C1C(c2ccccc2)=C(O)C2CCc3ccccc3N12 (configuration not stated)	i	-0.63
O=C(CN1CCN(Cc2ccc(F)cc2)CC1)NCc1ccccc1	i	-0.04

Two successive entries already listed, for reference:
SMILES	KCNQ2 inh	KCNQ2 inh baseline
COc1cc(C)c(S(=O)(=O)N2CCCC2)cc1C	i	0.98
CCOC(=O)c1cn(-c2c(Cl)cccc2Cl)c2cc(Cl)c([N+](=O)[O-])cc2c1=O	i	-2.06

Additional compounds.
SMILES	KCNQ2 inh	KCNQ2 inh baseline
CCOC(=O)C1CCCN(C(=O)N2CCOCC2)C1 (configuration not stated)	i	0.88
Cc1ccc(C(=O)NC(=S)NNS(=O)(=O)c2ccccc2)cc1	i	-0.39
COc1ccc(CN2CCNC(=O)C2CC(=O)NCc2csc(C)n2)c(F)c1 (configuration not stated)	i	-0.12
CCN(CC)S(=O)(=O)c1cccc(NC(=O)CN(C)C2CCCCC2)c1	i	-1.52
CCCCNc1ccc(C(=O)O)cc1	i	0.97
COc1cccc(C(=O)N2CCCc3ccccc32)c1	i	0.96
COc1ccc(C(C)(C)C)cc1NC(=O)c1cc(S(=O)(=O)N(C)C)ccc1N1CCCC1	i	-3.27
OC(COC(c1ccc(F)cc1)c1ccc(F)cc1)CN1CCc2ccccc2C1 (configuration not stated)	i	0.42
O=C(COC(=O)C(O)c1ccccc1)c1ccc2c(c1)OCCO2 (configuration not stated)	i	2.44
CCCNC(=O)COC(=O)C1CCN(S(=O)(=O)c2ccc3c(c2)OCCO3)CC1	i	-1.07
Cc1ccc(-c2cc(C(F)F)nc(S(C)(=O)=O)n2)cc1	i	-0.21
CCOC(=O)CSC1=C(C#N)C(c2ccco2)C(C(=O)OCc2ccccc2)=C(C)N1 (configuration not stated)	i	-0.66
O=C(N/N=C/c1cc(Br)c(O)c(Br)c1)c1cc2c(ccc3ccccc32)o1	-10.7*	-1.86*
